Env fusion inh = inhibitors of HIV-1 Env-driven cell-cell fusion, primary screen, HeLa-JRFL effector, CEM21 target cells, luciferase. inhibition, % at 12.3 µM. 360,000 tested, 1.1% active. AID 651610, 2012;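 active = mean replicate inhibition score of at least 50 and every replicate individually at or above 50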;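 note: 0% = plate neutral controls and 100% = maraviroc near 300 nM; one replicate is shown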
* = called active by the depositor; [ ] = dose if it differs, or a comment. These rows are one share of the data; count on the stated rates, not on these rows.

Preview, four compounds:
SMILES	Env fusion inh
CN1CCN(C(=O)C[C@@H]2CC[C@H]3[C@H](COc4ccc(NC(=O)C5CCOCC5)cc4C(=O)N3C)O2)CC1	9[16.7 µM]
Oc1cc(O)cc(C=Cc2ccc(O)c(O)c2)c1	-110
C[C@@H]1CN([C@@H](C)CO)C(=O)c2c(c3ccccc3n2C)-c2ccccc2CO[C@@H]1CN(C)S(=O)(=O)c1ccccc1F	-17[16.7 µM]
O=C(O)C[C@H]1C[C@@H]2c3cc(NC(=O)Cc4ccncc4)ccc3O[C@@H]2[C@@H](CO)O1	-14[16.7 µM]

The list itself, from the first entry:
SMILES	Env fusion inh
CN1CCN(C(=O)C[C@@H]2CC[C@H]3[C@H](COc4ccc(NC(=O)C5CCOCC5)cc4C(=O)N3C)O2)CC1	9[16.7 µM]
Oc1cc(O)cc(C=Cc2ccc(O)c(O)c2)c1	-110
C[C@@H]1CN([C@@H](C)CO)C(=O)c2c(c3ccccc3n2C)-c2ccccc2CO[C@@H]1CN(C)S(=O)(=O)c1ccccc1F	-17[16.7 µM]
O=C(O)C[C@H]1C[C@@H]2c3cc(NC(=O)Cc4ccncc4)ccc3O[C@@H]2[C@@H](CO)O1	-14[16.7 µM]
COc1ccccc1C#Cc1cnc2c(c1)C(=O)N([C@H](C)CO)C[C@H](C)[C@H](CN(C)C(=O)c1ccc3c(c1)OCO3)O2	12[16.7 µM]
C[C@H]1CN([C@@H](C)CO)C(=O)c2c(c3ccccc3n2C)-c2ccccc2CO[C@H]1CN(C)C	6[16.7 µM]
O=C1CCCn2cc(nn2)COC[C@H](Cc2ccccc2)N1	18[16.7 µM]
CO[C@H]1CN(C)C(=O)c2cc(NC(=O)C3CCOCC3)ccc2OC[C@@H](C)N(CC2CC2)C[C@H]1C	5[16.7 µM]
O=C(C[C@@H]1CC[C@@H](NC(=O)Nc2ccc(C(F)(F)F)cc2)[C@H](CO)O1)NCc1cc(F)cc(F)c1	19[16.7 µM]
Cc1ccc(S(=O)(=O)N(C)C[C@@H]2Oc3ccc(NC(=O)Nc4cccc5ccccc45)cc3C(=O)N([C@@H](C)CO)C[C@@H]2C)cc1	9[16.7 µM]
CN(C)CC(=O)N1[C@@H]2c3ccc(-c4ccccc4)c(=O)n3C[C@@H]2[C@@H](CO)[C@@H]1C(=O)NC1CCC1	2[16.7 µM]
COc1ccc(C#Cc2ccc3c(c2)O[C@H](CN(C)C(=O)CN2CCOCC2)[C@H](C)CN([C@@H](C)CO)S3(=O)=O)cc1	7[16.7 µM]
COc1ccc2c3c(n(C)c2c1)[C@H](CO)N(C(=O)Cc1ccccn1)CC31CN(CC2CCOCC2)C1	-23[16.7 µM]
C[C@H]1CN([C@@H](C)CO)S(=O)(=O)c2ccc(-c3cccnc3)cc2O[C@H]1CN(C)C(=O)C1CC1	-11[16.7 µM]
COCCNC(=O)C[C@@H]1C[C@H]2c3cc(NS(=O)(=O)c4ccccc4)ccc3O[C@H]2[C@@H](CO)O1	-20[16.7 µM]
CCCCCCCCN1C(=O)[C@@H](CC(=O)N2CCCCC2)C[C@@]2(C(=O)OC)C1=C[C@H](C(C)(C)C)O[C@@H]2C	22
CC(C)[Si](C#CCCCC#N)(O[C@H](c1ccccc1)c1cn(Cc2cccc(Cl)c2)nn1)C(C)C	-8[16.7 µM]
COc1ccc(S(=O)(=O)N(C)C[C@H]2Oc3ccc(NC(=O)Nc4cccc5ccccc45)cc3CC(=O)N([C@H](C)CO)C[C@H]2C)cc1	-3[16.7 µM]
C[C@@H]1CCCCO[C@@H](CN(C)S(=O)(=O)c2cccs2)[C@H](C)CN([C@H](C)CO)C(=O)c2cc(N(C)C)ccc2O1	-9[16.7 µM]
CCCNC(=O)N1C[C@H](C)[C@H](OC)CN(C)C(=O)c2cc(NC(=O)CCC)ccc2OC[C@H]1C	9[16.7 µM]
COC(=O)c1cc2c(c3c4cc(C)ccc4n(S(=O)(=O)c4cccc(C)c4)c13)C(=O)N(Cc1ccccc1OC)C2	-10
CN(c1ccc(NC(=O)CCc2cn(Cc3ccc(Br)cc3)c3ccccc23)cc1)c1ccccn1	31
CCCCCCCCN1C(=O)[C@@H](CC(=O)N2CCN(C(=O)c3ccco3)CC2)C[C@@]2(C(=O)OC)C1=C[C@H](C1CCCC1)O[C@@H]2C	10
C[C@@H]1CN([C@@H](C)CO)C(=O)c2cc(NC(=O)Cc3ccccc3)ccc2O[C@H]1CN(C)C(=O)Nc1ccc(C(F)(F)F)cc1	6[16.7 µM]
O=C(NC1CCCC1)[C@@H]1[C@@H](CO)[C@@H]2Cn3c(ccc(-c4ccccc4)c3=O)[C@H]1N2CCc1ccccc1	10[16.7 µM]
CN1[C@H](C(=O)NCC2CCCCC2)[C@@H](CO)[C@@H]2Cn3c(ccc(-c4cccnc4)c3=O)[C@@H]21	11[16.7 µM]
C[C@H](CO)N1C[C@H](C)[C@@H](CN(C)C(=O)c2ccncc2)OCCCC[C@H](C)Oc2ccc(NC(=O)c3ccncc3)cc2C1=O	-4[16.7 µM]
C[C@H]1CN([C@@H](C)CO)C(=O)c2cc(-c3cccc(C#N)c3)cnc2O[C@H]1CN(C)Cc1ccc(F)cc1	-7[16.7 µM]
CO[C@H]1CN(C)C(=O)c2ccc(NC(=O)c3ccc(-c4ccccc4)cc3)cc2OC[C@@H](C)NC[C@@H]1C	17[16.7 µM]
C[C@H](CO)N1C[C@H](C)[C@@H](CN(C)S(=O)(=O)c2ccc(F)cc2)Oc2c(NC(=O)Nc3cccc4ccccc34)cccc2C1=O	-8[16.7 µM]
C/C=C/c1ccccc1[C@@H]1[C@@H](C#N)N(c2nc(CC)cs2)[C@@H]1CO	-2[16.7 µM]
O=C(C[C@H]1CC[C@H]2[C@@H](COC[C@@H](O)CN2C(=O)Nc2cccc(Cl)c2)O1)N1CCCCC1	-59[16.7 µM]
COc1ccc(-c2cc(=O)c3cccc(CC(=O)O)c3o2)cc1	17
C[C@H](CO)N1C[C@H](C)[C@H](CN(C)CC2CC2)OCCCC[C@H](C)Oc2ccc(NC(=O)Nc3ccc4c(c3)OCO4)cc2C1=O	41[16.7 µM]
C[C@@H]1CN([C@H](C)CO)C(=O)c2c(c3ccccc3n2C)-c2ccccc2CO[C@@H]1CN(C)C(=O)CCN(C)C	-54
CCCNC(=O)Nc1ccc2c(c1)C(=O)N(C)C[C@H](OC)[C@H](C)CN(C(=O)c1ccccc1F)[C@H](C)CO2	1[16.7 µM]
NC(=O)[C@@H]1CCCN1C(=O)[C@H](CCc1ccccc1)NC(=O)[C@H]1O[C@@H](n2cnc3c(N)ncnc32)[C@H](O)[C@@H]1O	12
CC(=O)N1CCN(c2ccc(N3CCN(C(C)=O)[C@H](C)C3)c(C)c2)[C@@H](C)C1	0
C[C@H](CO)N1C[C@H](C)[C@H](CN(C)C(=O)NC2CCCCC2)Oc2ccc(NC(=O)CCCN(C)C)cc2C1=O	-7[16.7 µM]
Cc1cccc(CN(C)C[C@@H]2OCc3cn(nn3)CCCC(=O)N([C@@H](C)CO)C[C@@H]2C)c1	16[16.7 µM]
Cc1noc(C)c1C(=O)N(C)C[C@H]1OCc2ccccc2-c2ccccc2C(=O)N([C@@H](C)CO)C[C@@H]1C	0[16.7 µM]
COC(=O)C[C@@H]1CC[C@H]2[C@@H](COc3ccc(NC(=O)c4cccc(Cl)c4)cc3C(=O)N2C)O1	1[16.7 µM]
CCCN(C)C[C@@H]1Oc2cc(C3=CCCC3)ccc2S(=O)(=O)N([C@@H](C)CO)C[C@H]1C	6[16.7 µM]
C[C@@H]1CN([C@@H](C)CO)C(=O)c2cc(NS(=O)(=O)c3ccccc3)ccc2O[C@@H]1CN(C)C	-2[16.7 µM]
C[C@@H]1CN([C@H](C)CO)C(=O)c2cc(NS(=O)(=O)c3cccs3)ccc2O[C@@H]1CN(C)Cc1ccccc1	17[16.7 µM]
CO[C@@H]1CN(C)C(=O)c2ccc(NC(=O)c3nc4ccccc4s3)cc2OC[C@@H](C)NC[C@H]1C	-8[16.7 µM]
NC1(N2SC(S)=C3CCCC=C32)CCCCC1	9
COc1cccc(C(=O)N[C@H](C(=O)N2CCC[C@H]2C(=O)NCc2ccccc2)C2CCCCC2)c1	-33
CO[C@H]1CN(C)C(=O)c2ccc(NC(=O)c3ccccc3F)cc2OC[C@H](C)N(CC2CCOCC2)C[C@@H]1C	31[16.7 µM]
CO[C@H]1CN(C)C(=O)c2cc(NC(C)=O)ccc2OC[C@@H](C)N(CC2CCCCC2)C[C@@H]1C	-9[16.7 µM]
CCCNC(=O)Nc1ccc2c(c1)C(=O)N(C)C[C@@H](OC)[C@@H](C)CN[C@@H](C)CO2	1[16.7 µM]
CC(C)OC(=O)[C@@H](Cc1ccccc1)N[C@H](/C=C/c1ccccc1)[C@@H](O)Cc1ccccc1	11
O=C(C[C@H]1C[C@H]2c3cc(NC(=O)c4ccc5c(c4)OCO5)ccc3O[C@H]2[C@@H](CO)O1)NCc1ccc(Oc2ccccc2)cc1	42[16.7 µM]
C[C@H]1CN([C@@H](C)CO)C(=O)c2cc(NC(=O)CCN3CCOCC3)ccc2O[C@@H]1CN(C)Cc1ccncc1	-3[16.7 µM]
COc1ccc2c3c([nH]c2c1)[C@H](CO)N(C(=O)NC(C)C)CC31CCN(C(=O)NC(C)C)CC1	7[16.7 µM]
O=C1NC(Cc2ccccc2)c2nc3ccc(F)cc3c(=O)n2-c2ccccc21 (stereo not drawn)	-21
CN1CCN(C(=O)C[C@H]2C[C@H]3c4cc(NS(C)(=O)=O)ccc4O[C@H]3[C@H](CO)O2)CC1	-10[16.7 µM]
CC(C)(C)[S@](=O)N1Cc2cc(C(=O)N3CCOCC3)nc(-c3cccc(-c4ccc(C#N)cc4)c3)c2[C@@H]1CCO	-5[16.7 µM]
O=C(N[C@H]1CC[C@@H](CCNS(=O)(=O)c2ccc(Cl)cc2)O[C@@H]1CO)c1ccccn1	4[16.7 µM]
O=C(c1cc2c(c(-c3cccc(-c4ccc(F)cc4)c3)n1)[C@@H](CCO)N(C(=O)c1ccc3c(c1)OCO3)C2)N1CCOCC1	15[16.7 µM]

Additional records follow.
SMILES	Env fusion inh
CCCC(=O)Nc1ccc2c(c1)C(=O)N(C)C[C@@H](OC)[C@@H](C)CN(C(=O)CC1CC1)[C@H](C)CO2	3[16.7 µM]
COc1ccc(NC(=O)Nc2ccc3c(c2)[C@H]2C[C@H](CC(=O)O)O[C@H](CO)[C@H]2O3)cc1	-14[16.7 µM]
COc1cc(N2C[C@@]3(O)CC[C@@H](O)[C@@H](OC)[C@@H]3[C@@](C)(O)[C@@H]2CC=C(C)C)cc(OC)c1OC	8
Cc1noc(C)c1NC(=O)Nc1ccc2c(c1)C(=O)N(C)[C@H]1CC[C@@H](CC(=O)N[C@H]3CCN(Cc4ccccc4)C3)O[C@@H]1CO2	0[16.7 µM]
COC(=O)[C@]12C[C@H](CC(=O)NCC34CC5CC(CC(C5)C3)C4)C(=O)N(CCC3=CCCCC3)C1=C[C@H](C(C)(C)C)O[C@@H]2C	53
C[C@@H]1CCCCO[C@@H](CN(C)C)[C@H](C)CN([C@H](C)CO)C(=O)c2cc(NC(=O)c3ccccc3)ccc2O1	5[16.7 µM]
Cc1cccc(CN(C)C[C@@H]2OCc3cnnn3CCCC(=O)N([C@H](C)CO)C[C@@H]2C)c1	8[16.7 µM]
COc1ccccc1C#Cc1cnc2c(c1)C(=O)N([C@@H](C)CO)C[C@@H](C)[C@H](CN(C)S(=O)(=O)c1cn(C)cn1)O2	-1[16.7 µM]
CO[C@H]1CC[C@@H]2CCN(C)C(=O)[C@@H](C)[C@@H](OC)CN(C)C(=O)c3cc(C#N)ccc3OC[C@@H]1O2	14[16.7 µM]
C[C@@H]1CN([C@@H](C)CO)C(=O)c2ccccc2-c2ccccc2CO[C@@H]1CN(C)C(=O)Nc1ccccc1C(F)(F)F	-8[16.7 µM]
C[C@@H]1CN([C@@H](C)CO)C(=O)Cc2cc(NS(=O)(=O)c3ccc(F)cc3)ccc2O[C@@H]1CN(C)Cc1ccncc1	3[16.7 µM]
COC(=O)C[C@@H]1C[C@@H]2c3cc(NC(=O)CN(C)C)ccc3O[C@@H]2[C@@H](CO)O1	2[16.7 µM]
COC(=O)[C@]12C[C@H](CC(=O)NCc3cccc4ccccc34)C(=O)N(Cc3ccc4c(c3)OCO4)C1=C[C@H](COCc1ccccc1)O[C@@H]2C	18
C[C@H]1CN([C@@H](C)CO)S(=O)(=O)c2ccc(Br)cc2O[C@@H]1CN(C)C(=O)C1CCC1	24[16.7 µM]
C[C@H](CO)N1C[C@H](C)[C@H](CN(C)S(=O)(=O)c2cn(C)cn2)Oc2ccc(NS(=O)(=O)c3cn(C)cn3)cc2C1=O	15[16.7 µM]
COc1ccc2c3c(n(C)c2c1)[C@H](CO)N(CC1CCOCC1)CC31CCN(Cc2nccs2)CC1	-56[16.7 µM]
C[C@H]1CN([C@@H](C)CO)C(=O)Cc2cc(NC(=O)c3ccncc3)ccc2O[C@@H]1CN(C)Cc1ccc(Cl)c(Cl)c1	-2[16.7 µM]
CO[C@@H]1CN(C)C(=O)c2cc(NC(=O)NC(C)C)ccc2OC[C@H](C)NC[C@H]1C	-5[16.7 µM]
CCNC(=O)N1C[C@H]2CON(C)[C@H]2C[C@H]1c1ccc(N2CCCCC2)cc1	13

Quoted from the listing.
`CO[C@H]1CC[C@@H]2CCN(C)C(=O)[C@@H](C)[C@@H](OC)CN(C)C(=O)c3cc(C#N)ccc3OC[C@@H]1O2` in Env fusion inh reads 14[16.7 µM]
`C[C@@H]1CN([C@@H](C)CO)C(=O)c2cc(NS(=O)(=O)c3ccccc3)ccc2O[C@@H]1CN(C)C` in Env fusion inh reads -2[16.7 µM]

Three consecutive records already listed, for reference:
SMILES	Env fusion inh
COc1ccc2c3c(n(C)c2c1)[C@H](CO)N(CC1CCOCC1)CC31CCN(Cc2nccs2)CC1	-56[16.7 µM]
C[C@H]1CN([C@@H](C)CO)C(=O)Cc2cc(NC(=O)c3ccncc3)ccc2O[C@@H]1CN(C)Cc1ccc(Cl)c(Cl)c1	-2[16.7 µM]
CO[C@@H]1CN(C)C(=O)c2cc(NC(=O)NC(C)C)ccc2OC[C@H](C)NC[C@H]1C	-5[16.7 µM]

Screening results: PubChem BioAssay, Broad Institute
